TRPML1 inh: blocks the human TRPML1 channel. Q9GZU1. TRPML1-inducible cells, Ca2+ dye fluorescence, FDSS; hits give low values; inhibition of EC80 agonist-evoked calcium signal. 0.02% of 390,000 active. AID 624415. activity change, negative = inhibition, % (test concentration not listed); in the data active means activity change below about -50%; inconclusive means about -30% to -50%; inactive means above about -30%;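 further: stimulus is agonist 54-4 at its EC80 concentration; on the % scale 0 is the no-effect control and ±100 the full control effect; compound concentration not given in the record; the text of the record puts the active cut at -80%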
Target sequence (Q9GZU1 whole entry, looked up): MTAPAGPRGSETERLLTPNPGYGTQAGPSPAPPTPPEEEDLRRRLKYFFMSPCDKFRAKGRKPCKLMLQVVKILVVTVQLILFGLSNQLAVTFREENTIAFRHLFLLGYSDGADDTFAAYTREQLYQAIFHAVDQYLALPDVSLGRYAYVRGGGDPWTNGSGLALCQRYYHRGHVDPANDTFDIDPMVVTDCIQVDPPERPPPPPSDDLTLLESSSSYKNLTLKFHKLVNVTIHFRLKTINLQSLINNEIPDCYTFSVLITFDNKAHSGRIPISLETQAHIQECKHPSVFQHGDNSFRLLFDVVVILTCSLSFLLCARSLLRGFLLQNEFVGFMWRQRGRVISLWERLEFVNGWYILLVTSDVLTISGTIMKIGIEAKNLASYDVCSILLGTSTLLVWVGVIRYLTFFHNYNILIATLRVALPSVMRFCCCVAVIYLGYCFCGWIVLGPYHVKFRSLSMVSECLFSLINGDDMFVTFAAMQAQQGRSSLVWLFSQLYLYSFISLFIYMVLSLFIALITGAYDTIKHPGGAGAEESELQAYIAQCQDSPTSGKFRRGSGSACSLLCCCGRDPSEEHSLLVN
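TRPML1-DL cells, Tet-induced overnight (~16 h, 37 °C) at 1,500 cells/well, were loaded with Ca8 no-wash dye plus quencher for 45-90 min at room temperature. Compounds were pinned during FDSS kinetic reading; agonist 54-4 at EC80 (4 uM final) then added.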
Six1-Eya2 inh: inhibitors of human Six1/Eya2 interaction; Q15475+O00167; AlphaScreen GST-Six1/His-Eya2 binding, biochemical; hits give low values; control for the full effect not named in the record; activity change, % (concentration not given with the values); 0.56% of 360,000 active; AID 651725; in the data active = activity change below about -65%; inconclusive = about -30% to -65%; inactive = above about -30%; further: on the % scale 0 is the no-effect control and ±100 the full control effect
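Homogeneous AlphaScreen proximity assay pairing GST-Six1 with His-tagged Eya2 (added as 5X mix: 250 nM and 500 nM) in 50 mM Tris pH 8.0, 300 mM NaCl, 1 mM TCEP. Glutathione donor and nickel acceptor beads; 1 h, 37 °C, dark.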
TRPML1 ag: agonists of human TRPML1 channel | Q9GZU1 | TRPML1-expressing cells, Ca2+ dye fluorescence, FDSS; host cell line not named in the record; reference of the full effect not given here | activation, % (no concentration beside the values) | 0.12% of 410,000 active | AID 624414; in the data active = activation above about 50%; inconclusive = about 30% to 50%; inactive = below about 30%; further: 0% is about no effect; the text of the record puts the active cut at 80%
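Kinetic FDSS Ca2+ read in Tet-induced TRPML1-DL cells (ABD Ca8 dye plus quencher, 45-90 min RT loading): baseline, then compound, then 110 s agonist window; EC80 agonist 54-4 at 4uM final added afterwards for a 110 s antagonist window.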
D2 ag: activates the human D2 dopamine receptor | P14416 | DiscoveRx PathHunter D2 beta-arrestin, luminescence, 90 min; 100% = 57 uM dopamine signal | activation, % (concentration not given with the values) | 0.084% of 360,000 active; in the data active = activation above about 40%; inconclusive = about 15% to 40%; inactive = below about 15%; further: compound concentration not given in the record; the text of the record calls up to 30% inactive
Target sequence (P14416 whole entry, looked up): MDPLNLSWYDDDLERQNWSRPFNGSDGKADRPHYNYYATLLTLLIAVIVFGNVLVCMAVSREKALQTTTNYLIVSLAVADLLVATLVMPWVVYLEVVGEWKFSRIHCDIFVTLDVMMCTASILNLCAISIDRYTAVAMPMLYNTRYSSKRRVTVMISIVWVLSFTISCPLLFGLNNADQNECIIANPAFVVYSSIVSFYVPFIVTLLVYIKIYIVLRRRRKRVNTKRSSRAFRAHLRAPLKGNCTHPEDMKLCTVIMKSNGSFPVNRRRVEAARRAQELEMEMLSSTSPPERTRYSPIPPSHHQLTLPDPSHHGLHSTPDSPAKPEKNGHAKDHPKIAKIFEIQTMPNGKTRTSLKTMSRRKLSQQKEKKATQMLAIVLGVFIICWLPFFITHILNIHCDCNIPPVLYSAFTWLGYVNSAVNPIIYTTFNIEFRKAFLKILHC
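DiscoveRx PathHunter D2 beta-arrestin cells (2,100/well) attached overnight, then compound-stimulated 90 min at 37 C in HBSS/10 mM HEPES/0.1% Tween-20 buffer; beta-galactosidase complementation read by luminescence after 1 h at ambient temperature. Dopamine 57 uM final (EC100) as control.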
D2 potentiator: positive allosteric modulators of human D2 dopamine receptor. P14416. DiscoveRx D2 beta-arrestin cells, luminescence, 90 min; 100% = 57 uM dopamine signal. potentiation, % (test concentration not listed). 0.23% of 360,000 active; active = potentiation of 50% or more; inconclusive = 30% to 50%; inactive = 30% or less;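 further: compound concentration not given in the record; tested on top of an EC20 dose of dopamine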
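PathHunter D2 cells, attached overnight at 37 deg C, received compound in DMSO plus dopamine at EC20 (50 nM final) for 90 min at 37 deg C. Beta-arrestin recruitment was read as luminescence after 1 h with detection reagent at ambient temperature.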
PINK1 modulator: PINK1 expression modulation; 0.2% of 410,000 active; Potency, µM (top dose mostly 76.6 µM), for inactives: at the top dose activation (PINK1 increase), actives largely listed as activators; PINK1 immunofluorescence, high-content cytometry, 24 h; AID 624263; active = well fitted activation curve with a large enough effect; inconclusive = small, poorly fitted or top-dose-only effect; inactive = flat fitted curve, though single readings scatter; cell line not stated here;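 further: potency means the concentration at half of the fitted maximal effect; % of control where 0% means no effect; nearly all actives have a fitted effect of over 65% in size; a mitochondrial uncoupler was the plate control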
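Stable cell line, 250 cells/well, 12 h attachment; compounds pinned at 5 concentrations, 24 h; CCCP control. Fixed with nuclear dye, primary antibodies 12 h at 10 degrees C, secondary plus cell stain; laser-scanning cytometer read.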
* marks the source's active call; other numbers are inactive results; ? = inconclusive; / = not tested or not shown; [ ] = another dose, or the depositor's remark.

Under each structure – TRPML1 inh, Six1-Eya2 inh, TRPML1 ag, D2 ag, D2 potentiator, PINK1 modulator
COC(=O)c1ccc2nc(C3CCCCC3)c3c(c2c1)CCC3
 : -1, -2, -0.6, -6.1, -7, 2.2%
CCC(CC)c1nn2c(N)c(/C=C3\C(C)=Nc4ccccc43)c(=O)nc2s1
 : 2, -16, 0.2, 2.9, -1, -0.7%
O=C(COC(=O)c1cc(S(=O)(=O)N2CCCCC2)ccc1Cl)NCc1ccco1
 : 7, -3, -1.4, -1.5, 6, 0.9%
Cc1ccc(C)c(NS(=O)(=O)c2cc(C(=O)NCc3ccncc3)ccc2C)c1
 : -15, 12, 0.0, 1.2, 12, 1.2%
COCCNC(=O)/C(C#N)=C1\N=C(N)c2ccccc21
 : -2, -10, 2.0, -0.3, 5, -1.0%
CCC(=O)N1CCc2cc(S(=O)(=O)NC(CC(C)C)C(=O)NCCc3cccc(C)c3)ccc21 (configuration not stated)
 : -5, /, -0.3, /, /, 12%
CCOc1ccc(Br)cc1S(=O)(=O)Nc1cccc(S(=O)(=O)N(C)C)c1
 : ?, 15, 0.6, 2.4, -4, 2.3%
CSCCC(NC(=O)c1ccccc1)C(=O)OCC(=O)N(C)CCC#N (configuration not stated)
 : 1, 1, -0.4, -2.3, -2, 0.7%
Cc1nn(C)c(Oc2ccccc2)c1CCNC(=O)C(C)(C)C
 : 21, -1, 2.7, 2.0, -14, 1.0%
COc1ccccc1C#CC1=CC(=O)C[C@H](c2ccc(F)cc2)C1
 : 61, -8, 0.2, -9.7, -3, 2.5%
CN1C(=O)CC(n2c(CO)nc3ccccc32)C1=O (configuration not stated)
 : -10, 1, 0.2, 1.7, 14, -1.9%
Cc1nn(C)cc1[C@@H]1C[C@H]2CN(Cc3cccc(Cl)c3)C(=O)[C@]23CCCN13
 : -10, -2, -0.1, 2.1, -5, 1.3%
Cc1ccc(-c2nc3ccc(Br)cn3c2Nc2ccc3c(c2)OCO3)o1
 : 24, /, 2.4, /, /, -0.8%
CCCCc1ncc(CN2CCC(n3nccc3NC(=O)c3ccccc3OC)CC2)[nH]1
 : -11, -2, 0.8, -2.1, -20, -0.9%
COC(=O)C(CCSC)Nc1ncnc2onc(-c3ccc(F)cc3)c12 (configuration not stated)
 : -7, /, -0.2, /, /, -0.8%
O=S(=O)(Nc1ccc(-c2ccc(N3CCCC3)nn2)cc1)c1ccc(OC(F)(F)F)cc1
 : -27, /, 27, /, /, 6.4%
O=S(=O)(c1ccc(Br)cc1)c1nc(-c2ccccc2)oc1NCCN1CCOCC1
 : -4, -1, 0.4, 0.2, -29, 4.2%
CN(C(=S)NC(=O)C1(C)CC1(Cl)Cl)c1ccccc1 (configuration not stated)
 : 5, 12, 0.0, 0.3, -2, 0.6%
CCc1cc(=O)[nH]c(SCC(=O)N2CCOCC2)n1
 : 0, 2, -0.6, -0.7, -2, -0.7%
O=C(NCc1cccnc1)NC1(C(F)(F)F)Oc2ccc(Cl)cc2O1 (configuration not stated)
 : 38, 2, -1.2, 11, 7, 0.6%
Cc1ccc(CN(C(=O)c2ccc(C(C)(C)C)cc2)c2ccccn2)o1
 : -11, /, 0.6, /, /, 3.5%
CN(CCOc1ccccc1)C(=O)CCc1nc2sc3c(c2c(=O)[nH]1)CCCC3
 : -9, -4, 1.7, -3.7, -6, 8.2%
Cc1ccnc(SCc2cn3c(C)cccc3n2)n1
 : -13, 1, -0.2, -1.8, -6, -0.3%
C/C(=N/NS(=O)(=O)c1ccc(C(C)(C)C)cc1)c1ccc2c(c1)OCO2
 : 9, -3, 3.2, 2.0, -7, 1.8%
CSc1nc(C)c(Cl)c(C)c1C#N
 : 18, 14, 0.3, -1.8, -6, -1.1%
O=C(Cc1ccc(Br)cc1)NCCN1CCOCC1
 : 0, 7, 0.8, -2.2, -9, 1.6%
COc1cccc(-c2nc(-c3ccccc3)no2)c1
 : 7, 44, 0.1, -4.6, -28, 0.5%
CC(C)(C)OC(=O)N1CCC(c2c(C(=O)Nc3ccc4c(c3)OCO4)cnn2-c2ccc(F)cc2F)CC1
 : 2, /, 7.1, /, /, -0.6%
C=CCn1c(N2C(=O)CC(Cc3ccccc3)C2=O)nc2ccccc21 (configuration not stated)
 : -7, 27, -0.3, -1.3, 14, /
CC1CCN(C(=O)CSc2nnc(-c3cccs3)o2)CC1
 : 1, -1, 0.0, -0.3, -3, -0.2%
Clc1ccc(C(c2ccccc2)N2CCNCC2)cc1 (configuration not stated)
 : 1, 5, 1.6, -2.8, -19, -4.5%[38.3 µM]
O=[N+]([O-])c1ccc(NC(=S)N2CCN(c3ccccc3)CC2)cc1
 : 6, -16, -1.6, -4.7, -5, 0.5%
O=C(/C=C/c1ccco1)NCCCN1CCN(CCCNC(=O)/C=C/c2ccco2)CC1
 : -23, 4, 0.5, -0.2, -8, 0.0%
COC(=O)c1ccc(C(=O)N2CCCC(N3CCN(c4ccccc4)CC3)C2)nc1 (configuration not stated)
 : -3, 4, -1.2, -1.2, -8, -1.1%
COc1ccc(N(CC(=O)N2CCOCC2)S(C)(=O)=O)cc1OC
 : -6, 1, -0.2, 10, 0, 1.3%
O=C(Nc1nccs1)c1cccc(NC(=O)C(F)(F)F)c1
 : -13, 0, -0.4, -1.7, -8, 0.5%
Cc1ccc(O)c(C(=O)c2cc(C#N)c(=O)n(CC3CCCO3)c2)c1 (configuration not stated)
 : -9, 15, -0.9, -1.6, 5, 0.0%
Cc1ccc(/C=C2\SC(=S)N(CCC(=O)Nc3cccnc3)C2=O)cc1
 : -1, -1, -0.4, -2.7, 6, 26%
O=C(Nc1cccnc1)C1(c2ccc(Cl)cc2)CCCC1
 : 5, -2, -0.8, -0.1, -4, 3.2%[38.3 µM]
CCN1C(=O)[C@H]2[C@@H](c3ccc(OC)cc3)N[C@]3(CCCN(Cc4ccc(F)cc4)C3=O)[C@H]2C1=O
 : -6, 9, -0.9, -4.8, 7, 0.9%
CCC(=O)Nc1c(C(=O)N2CCCCCC2)cnn1-c1ccc(C)c(C)c1
 : 3, 4, -0.2, 1.0, -10, -1.0%[38.3 µM]
CCCc1cc(=O)[nH]c(SCC(=O)c2cc(C)n(CCC)c2C)n1
 : -5, -15, 0.5, -0.4, -4, -1.2%
O=C(O)C(=O)/C(=C\c1cccc(Cl)c1)c1ccc2ccccc2n1
 : 35, 10, 2.2, -8.7, 0, 2.0%
C[C@H](CO)N1C[C@H](C)[C@@H](CN(C)C)OCc2cnnn2CCCC1=O
 : -7, -3, -0.1, -4.3, 1, -1.0%
CC1(C)Cc2cccc(OCC(=O)Nc3ccc(S(N)(=O)=O)cc3)c2O1
 : 0, 6, -1.1, -4.0, -7, 1.8%

Four compounds out of the list, sorted by count of non-hydrogen atoms, lowest first:
Under each structure – TRPML1 inh, Six1-Eya2 inh, TRPML1 ag, D2 ag, D2 potentiator, PINK1 modulator
O=C(Nc1cccnc1)C1(c2ccc(Cl)cc2)CCCC1
 : 5, -2, -0.8, -0.1, -4, 3.2%[38.3 µM]
CCCc1cc(=O)[nH]c(SCC(=O)c2cc(C)n(CCC)c2C)n1
 : -5, -15, 0.5, -0.4, -4, -1.2%
C[C@H](CO)N1C[C@H](C)[C@@H](CN(C)C)OCc2cnnn2CCCC1=O
 : -7, -3, -0.1, -4.3, 1, -1.0%
CCN1C(=O)[C@H]2[C@@H](c3ccc(OC)cc3)N[C@]3(CCCN(Cc4ccc(F)cc4)C3=O)[C@H]2C1=O
 : -6, 9, -0.9, -4.8, 7, 0.9%

(cont.)
Under each structure – TRPML1 inh, Six1-Eya2 inh, TRPML1 ag, D2 ag, D2 potentiator, PINK1 modulator
COc1ccccc1C(=O)OCc1cc(=O)n2nc(-c3cccs3)sc2n1
 : -1, /, -0.6, /, /, 11%
CC(C)(C)OC(=O)N1CCC[C@H]1C(=O)N/N=C/c1cccc2cccnc12
 : 0, ?, -0.3, -3.5, -2, 1.1%
CCn1c(Cc2ccccc2)nnc1SCC(=O)Nc1nnc(-c2ccccc2)s1
 : 19, 0, -0.7, -1.3, -5, -0.4%[38.3 µM]
CCN(CC)C(=O)C1CCCN(Cc2cccc(Oc3ccccc3)c2)C1 (configuration not stated)
 : -2, -2, 3.3, 2.0, -15, 0.9%
CS(=O)(=O)c1ccc(Cl)c(NC(=O)c2cc(S(=O)(=O)N3CCOCC3)ccc2N2CCCC2)c1
 : -7, 4, -0.2, -6.8, -12, 4.0%
COc1ccccc1CNC(=O)Cc1c[nH]c2ccccc12
 : 14, -1, 0.4, -4.5, 5, -0.5%
CCOC(=O)C1(Cc2cccc(OC)c2)CCN(C/C=C/c2ccccc2)CC1
 : 10, -7, 0.3, 1.2, -14, 25%
Cn1c(N)c(C(=O)COC(=O)/C=C/c2ccc(S(=O)(=O)N3CCOCC3)cc2)c(=O)n(C)c1=O
 : /, -3, /, -1.6, -5, 0.9%
COc1ccc(NC(=O)CSc2nc(=O)n(CCN(C)C)c3c2CCCC3)cc1OC
 : 22, -5, 0.6, -2.4, -11, -1.6%
Cc1ccc(C2C(C(=O)O)c3ccccc3C(=O)N2C)c(C)c1 (configuration not stated)
 : -14, 2, 0.6, -1.7, 8, 0.1%
O=C(CSc1ncnc2nc[nH]c12)Nc1nnc(SCc2ccc(Cl)c(Cl)c2)s1
 : 0, -13, -0.4, -1.4, -7, 12%
Cc1cc(C)c(S(C)(=O)=O)c(Sc2ccc(Cl)cc2)n1
 : 7, 18, 1.6, -2.4, -21, 2.3%
Cc1oc(C)c(C(=O)NCCCC(=O)O)c1C(=O)NCCCC(=O)O
 : 11, 0, 0.1, -3.3, 3, 1.7%
CCOC(=O)c1c(C)[nH]c(C(=O)Nc2ccc(NC(C)=O)cc2)c1C
 : 1, -1, 0.5, -4.2, -15, 8.8%
C=CCN1C(=O)C2C(C(=O)NC3CCCCC3)C3C=CC2(O3)C1C(=O)NC1CCCC1 (configuration not stated)
 : -1, 11, -0.5, -1.6, -6, 4.4%
CC(=O)Nc1nc(-c2ccc3c(c2)CCN3S(C)(=O)=O)cs1
 : 9, -1, 1.7, 2.3, -22, 0.2%
N#C/C(=C(/O)c1cccs1)c1nc2ccccc2[nH]1
 : /, -7, /, -2.1, -1, 5.3%

An unsorted share of the library; overall some 1% were active at least once.
